Bioassay records as filed in PubChem BioAssay.
NS1 function inh = inhibitors of influenza NS1 protein function; Potency, µM (doses to about 46.1 µM), for the others: top-dose activity, positive = more growth; actives 0.4% (n = 270,000); S. cerevisiae slowed by influenza A NS1, growth recovery by OD600; note: actives are rising curves; nearly all actives have a fitted effect of over 50% in size
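Growth recovery, yeast-based: influenza A NS1 expressed in S. cerevisiae causes slow growth, and suppressors are detected by OD600. The parent strain without NS1 is used as positive control.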
SARS PLpro yeast = blocks SARS-CoV papain-like protease in a yeast assay | S. cerevisiae expressing SARS-CoV PLpro, growth rescue; control for the full effect not named in the record | Potency, µM (titrated, usually from 32.9 µM), for the others: top-dose activity, positive = growth rescue | actives 0.19% (n = 330,000); note: 0% is about no effect; nearly all actives have a fitted effect of over 55% in size; growth read by luminescence after 48 h
2A StopGo = lowers the luciferase signal of an FMDV 2A StopGo reporter | Potency, µM (series often up to 57.9 µM), for the others: at the top dose signal change, negative = less light | human cells with a luciferase reporter of 2A StopGo recoding; control for the full effect not named in the record | actives 1.2% (n = 410,000) | AID 1159524; active = well fitted falling curve with a large enough effect; inconclusive = small, poorly fitted or top-dose-only effect; inactive = no such curve, though single readings can be large or run the other way; tested in HEK293T cells; note: % is set by controls: 0 for no effect and ±100 for the full control effect; nearly all actives have a fitted effect of over 45% in size; luciferase light after 4 h
LASV entry inh = Lassa virus entry inhibition; Lassa virus pseudotype entry inhibition, cell reporter; control for the full effect not named in the record; Potency, µM (series often up to 37.9 µM), for inactives: top-dose activity change, negative = inhibition, hits mostly inhibitors; actives 1.2% (n = 300,000); AID 540256; active means well fitted inhibition curve with a large enough effect; inconclusive means small, poorly fitted or top-dose-only effect, or effect the other way; inactive means flat fitted curve, though single readings scatter; tested in HEK293 cells; note: % is set by controls: 0 for no effect and ±100 for the full control effect; nearly all actives have a fitted effect of over 50% in size; luciferase read-out
Cruzain noTriton = blocks cruzain activity in detergent-free assay | Potency, µM, for inactives: max response, negative = inhibition, actives largely listed as inhibitors | actives 2.3% (n = 200,000) | purified cruzain, Z-FR-AMC fluorescence, no detergent; active = well fitted curve in the direction sought with a large enough effect; inconclusive = small, poorly fitted or top-dose-only effect, or another doubt; inactive = no such curve, though single readings can be large; an effect the other way counts as inactive or inconclusive;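 note: plate controls were enzyme without inhibitor for no effect and buffer without enzyme for full effect; nearly all actives have a fitted effect of over 40% in size; top concentration of the series not given in the record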
Target sequence (P25779 123-467 limits assumed): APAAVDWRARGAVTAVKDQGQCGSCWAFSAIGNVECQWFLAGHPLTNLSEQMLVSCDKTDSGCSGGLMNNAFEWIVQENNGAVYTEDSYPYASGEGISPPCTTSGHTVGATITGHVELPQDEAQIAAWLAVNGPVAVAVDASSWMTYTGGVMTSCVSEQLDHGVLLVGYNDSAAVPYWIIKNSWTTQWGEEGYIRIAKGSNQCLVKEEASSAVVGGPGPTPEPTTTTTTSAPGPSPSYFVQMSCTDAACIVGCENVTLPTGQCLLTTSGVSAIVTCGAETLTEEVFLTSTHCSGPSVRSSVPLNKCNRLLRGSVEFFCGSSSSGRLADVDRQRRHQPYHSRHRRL
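Purified cruzain at 1.5 nM, pre-incubated 15 min with compound at room temperature in 100 mM sodium acetate pH 5.5, 5 mM DTT, 0.00005% Triton X-100. Reaction started with 2 uM Z-FR-AMC; AMC fluorescence increase over 60 s gives rate.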
RE007 growth inh = less growth of the S. pombe RE007 Vpr strain. S. pombe RE007 Vpr strain, BacTiter-Glo ATP luminescence, 24 h; control for the full effect not named in the record. Potency, µM (highest dose often 92.2 µM), without a hit: at the highest dose activity change, negative = less growth. actives 0.21% (n = 360,000). AID 651644; active = well fitted falling curve with a large enough effect; inconclusive = small, poorly fitted or top-dose-only effect; inactive = no such curve, though single readings can be large or run the other way;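 note: % is set by controls: 0 for no effect and ±100 for the full control effect; nearly all actives have a fitted effect of over 50% in size; the assay follows cell death caused by Vpr and the record does not say whether a fall means rescue or toxicity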
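Fission yeast RE007 carrying one integrated HIV-1 vpr copy, seeded at OD 0.01 in PMG+AL medium with 23 nL pinned compound. Grown 24 h at 30 degrees; viability read by BacTiter-Glo luminescence after 5 min.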
Cruzain Triton = cruzain (T. cruzi) inhibition with detergent; purified cruzain, Z-FR-AMC fluorescence, 0.01% Triton; Potency, µM, without a hit: max response, negative = inhibition, most hits filed as inhibitors; actives 0.43% (n = 200,000); P25779; AID 1478; active = well fitted curve in the direction sought with a large enough effect; inconclusive = small, poorly fitted or top-dose-only effect, or another doubt; inactive = no such curve, though single readings can be large; an effect the other way counts as inactive or inconclusive;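 note: plate controls were neutral wells for no effect and buffer without enzyme for full effect; nearly all actives have a fitted effect of over 40% in size; top concentration of the series not given in the record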
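Steps: dispense cruzain (1.5 nM final) in acetate buffer pH 5.5 with DTT and 0.01% Triton X-100; pin-transfer compounds; incubate 15 min RT; add Z-FR-AMC (2 uM final); read fluorescence every 30 s, using the 60 s intensity change.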
MARV entry inh = blocks Marburg virus binding to or entry into cells; Marburg virus pseudotyped entry inhibition, cell reporter; control for the full effect not named in the record; about a third of the inactives were read at about 46 µM; Potency, µM (highest dose often 37.8 µM), without a hit: at the highest dose activity change, negative = inhibition, hits mostly inhibitors; actives 1.8% (n = 300,000); AID 540276; active = well fitted inhibition curve with a large enough effect; inconclusive = small, poorly fitted or top-dose-only effect, or effect the other way; inactive = flat fitted curve, though single readings scatter; tested in HEK293 cells; about a fifth of its hits are not listed in these tables; note: % is set by controls: 0 for no effect and ±100 for the full control effect; luciferase read-out
The depositor's hits bear a star; ? = inconclusive; / = not tested or not shown; & = joins results of further samples; [ ] = remark or other dose. Unless noted, calls come from the whole dose curve; as a rule, active means well fitted rising curve with a large enough effect; inconclusive means small, poorly fitted or top-dose-only effect; inactive means no such curve, though single readings can be large or run the other way. Potency is the fitted concentration of half-maximal effect.

SMILES	NS1 function inh	SARS PLpro yeast	2A StopGo	LASV entry inh	Cruzain noTriton	RE007 growth inh	Cruzain Triton	MARV entry inh
Cc1ccc(N2C(=O)[C@@H]3[C@H](C2=O)[C@H]2C=CC=NN2[C@@H]3C(=O)Nc2ccccc2)cc1	10%	0%	20%	27%	/	-12%	/	5%
O=C(NCc1cccnc1)C1CCN(S(=O)(=O)c2cccnc2)CC1	1%	-2%	-20%	4%	-5%	-7%	2.9%	-11%
O=C(NCC1CCCO1)c1cccc(S(=O)(=O)Nc2cccc(C(F)(F)F)c2)c1 (stereo not drawn)	/	-10%	-4%	?	/	-10%	/	?
Cc1ccc(C2c3c(oc4cc(C)c(C)cc4c3=O)C(=O)N2CCCN2CCOCC2)cc1 (stereo not drawn)	-19%	-4%	0%	/	-26%	-4%	-0.9%	-1%
Cc1ccc(-c2nnn(CC(=O)N(c3ccccc3)C(C(=O)NC3CCCC3)c3ccncc3)n2)o1 (stereo not drawn)	2%	2%	-11%	8%	/	8%	/	0%[46.1 µM]
NC(=O)c1sc2nc3c(c(-c4cccs4)c2c1N)CCCCC3	4%	6%	?	4%	-2%	-6%	1.7%	-6%
COc1ccc(CCNC(=O)C2CCN(S(=O)(=O)c3ccc4c(c3)oc(=O)n4C)CC2)cc1OC	-1%	-3%	-3%	/	/	-4%	/	/
CSc1ccccc1NC(=O)CSc1nnc(COc2ccccc2)o1	-4%	-3%	-4%	-1%[46.1 µM]	/	-6%	/	1%[46.1 µM]
Cc1ccc(C(=O)Nc2ccc3nccnc3c2)cc1	-76%	-13%	-18%	?	-1%	?	-4.4%	?
O=C(Cc1ccc(F)cc1)Nc1nnc(SCC(=O)N2CCCCC2)s1	/	1%	-17%	?	/	-8%	/	25%
CCOC(=O)C1(Cc2cccc(OC)c2)CCN(Cc2ccc(OC)c(OC)c2)CC1	-3%	-1%	-26%	?	/	-14%	/	4.5µM*
CCOC(=O)c1scc(-c2ccccc2)c1S(=O)(=O)N1CCN(c2ccccc2OC)CC1	/	/	-20%	?	9%	/	-3.9%	/
CC(=O)NC(Cc1ccccc1)C(=O)NC(Cc1ccccc1)C(=O)O (stereo not drawn)	2%	0%	1%	/	/	-2%	/	/
OC(CNCC1CCCO1)COc1ccc(OCC(O)CNCC2CCCO2)cc1 (stereo not drawn)	12%	19%	6%	8%	-12%	3%	6.4%	-2%
O=C(O)c1cccc(NS(=O)(=O)c2ccc3c(c2)C(=O)c2ccccc2C3=O)c1	4%	0%	-15%	/	/	-22%	/	/
CCOc1ccc2ccccc2c1/C=N/NC(=O)c1ccc(C)nc1	-1%	0%	15%	/	/	-2%	/	/
COc1ccccc1CN(C)C(=O)c1cnc(C)cn1	5%	2%	-4%	/	/	-2%	/	/
COc1ccc(S(=O)(=O)NN(C)C)cc1N(C)S(=O)(=O)c1ccc(Cl)cc1	6%	-3%	-7%	8%	?	15%	0.7%	24%
O=c1c2ccccc2n2c(-c3ccc(F)c(F)c3)nnc2n1CCc1ccccc1	/	/	?	0%[46.1 µM]	5%	/	-2.2%	-5%[46.1 µM]
Cc1ccc(NC(=S)NNC(=O)CCn2cc(C)cn2)cc1	1%	-1%	9%	-8%	-2%	-17%	1.0%	-25%
CN(C)c1ccc(C2OC(=O)C3(CCCC3)C(=O)C2(C)C)cc1 (stereo not drawn)	-4%	/	5%	-22%[14.3 µM]	-16%	4%	2.0%	?
O=[N+]([O-])c1ccccc1S(=O)(=O)NCc1ccco1	8%	9%	24%	11%[46.1 µM]	/	0%	/	2%[46.1 µM]
O=C(Cn1c(=O)oc2ccccc21)NCc1ccccc1Cl	/	/	48%[activator]	-1%[46.1 µM]	-5%	/	-2.3%	/
O=C(NCCc1ccc2c(c1)OCCO2)c1cc(S(=O)(=O)N2CCCC2)ccc1Cl	/	8%	-24%	0%	/	-11%	/	-17%
COc1cc(/C=N\NS(=O)(=O)c2ccccc2)cc(OC)c1OC	-5%	4%	0%	/	/	-9%	/	/

Next section:
SMILES	NS1 function inh	SARS PLpro yeast	2A StopGo	LASV entry inh	Cruzain noTriton	RE007 growth inh	Cruzain Triton	MARV entry inh
O=[N+]([O-])c1cc(/C=N/O)ccc1SCc1ccccc1Cl	-4%	1%	-11%	-4%	-27%	11%	-8.8%	-26%
O=C(CSC1CS(=O)(=O)c2cc([N+](=O)[O-])ccc21)NNC(=O)c1ccccc1 (stereo not drawn)	0%	0%	0%	16%	/	-7%	/	-4%[46.1 µM]
CN1CCN(C(=O)c2cc3c(C(F)(F)F)nn(C)c3s2)CC1	6%	3%	-17%	4%	-14%	8%	1.2%	9%
Cc1nc(SCC(N)=O)c([N+](=O)[O-])[nH]1	/	2%	-12%	22%	/	3%	/	-9%
COC(=O)c1ccc(CNC(=O)COC(=O)COc2ccc(OC)cc2)cc1	3%	2%	0%	4%	/	-1%	/	?
COc1cccc(NC(=O)c2ccc3c(=O)n4nc(Nc5ccccc5OC)sc4nc3c2)c1	/	/	?	?	-24%	/	-4.3%	/
Cc1ccc(-c2noc(-c3nnn(CC(=O)Nc4ccc(C)cc4Cl)c3N)n2)cc1	/	/	-12%	28%[46.1 µM]	1%	/	-3.5%	/
C=CCn1c(N2CCCCCC2)nc2c1c(=O)n(C)c(=O)n2C	-7%	8%	/	?	-7%	-1%	1.3%	-21%
O=C(OCC(O)COC(=O)c1cccnc1)c1cccnc1	2%	1%	-6%	/	/	-12%	/	/
CCn1c(=O)cc(OCC(=O)N2CCN(c3ccc(OC)cc3)CC2)c2ccccc21	/	/	-23%	?	-8%	/	1.2%	-20%[46.1 µM]
Cc1ccc(S(=O)(=O)N(C)c2ccc(C(=O)Nc3ccc(C)cn3)cc2)cc1	/	-4%	?	?	/	10%	/	?
COc1ccc(OC)c(NC(=O)CSc2nnc3ccc(-c4ccncc4)nn23)c1	/	3%	-12%	1%	/	5%	/	-16%
O=C(O)c1cc(-c2ccccn2)n[nH]1	10%	0%	7%	14%	5%	1%[3.69 µM]	0.1%	18%
CN(C)CCC(c1ccccc1)c1ccccn1 (stereo not drawn)	-4%&-2%	0%	-12%&-8%&-9%&0%	13%&13%	1%&5%&1%&0%	7%	-5.1%&0.5%&-0.6%&0.7%	?
CCCN(C(=O)CSc1nnnn1-c1ccccc1OC)C1CCS(=O)(=O)C1 (stereo not drawn)	0%	-2%	-19%	-15%	/	6%	/	2%
CC(C)(C)c1ccc(OCC(=O)Nc2c(C(=O)c3ccc(F)cc3)oc3ccccc23)cc1	/	/	2%	4%[46.1 µM]	4%	/	-1.0%	8%[46.1 µM]
Cc1nc2ccccc2c(=O)n1CCCN1CCOCC1	-63%	1%	-10%	/	/	5%	/	/
O=C(NCCS(=O)(=O)N1CCN(c2ccc(F)cc2)CC1)c1cc(=O)c2ccccc2o1	/	/	-13%	-18%[46.1 µM]	0%	/	-1.0%	/
O=C(CC1N=C2c3ccccc3N=C(SCc3cccc(F)c3)N2C1=O)NCc1cccs1 (stereo not drawn)	/	/	-21%	9%[46.1 µM]	8%	/	-4.8%	/
COc1ccc(NC(=S)NN2C(C)CCCC2C)cc1 (stereo not drawn)	-3%	13µM*	14%	12%	4%	-11%	-1.6%	1%
N#Cc1ccc(Cn2c(=O)oc3ccccc32)cc1	4%	-1%	-1%	4%	/	90%	/	?
CCOC(=O)c1ccc(NC(=O)Cn2nc(C)c3nn(-c4ccc(Cl)cc4)c(C)c3c2=O)cc1	/	/	-15%	-24%[46.1 µM]	9%	/	0.3%	/
CCCCCCN(C(=O)CCCCCN1C(=O)NC(c2ccc(-c3ccccc3)cc2)C(C(=O)OCc2ccccc2)=C1C)C(C)C(=O)NCCCC (stereo not drawn)	-5%	17%	/	?	-4%&-17%	/	0.3%&2.9%	?
Cc1ccc(NC(=O)Nc2ccc3c(c2)CCC3)cc1	-5%	2%	16%	17%[46.1 µM]	/	5%	/	?
O=C(NC1(C(F)(F)F)C(=O)Nc2c1c(=O)[nH]c(=O)n2-c1ccccc1)c1ccncc1 (stereo not drawn)	/	/	-2%	6%	/	19%	/	-11%

Following part
SMILES	NS1 function inh	SARS PLpro yeast	2A StopGo	LASV entry inh	Cruzain noTriton	RE007 growth inh	Cruzain Triton	MARV entry inh
O=C(Cn1cc(C(=O)COc2ccccc2)c2ccccc21)NCc1ccco1	?	2%	2%	16%	-23%	-1%	2.1%	2%
O=C(NCCCCc1ccccc1)Nc1cccc(F)c1	-96%	-14%	2%	?	/	-22%	/	5%[46.1 µM]
CC1=CS/C(=C(/C#N)C(=O)N2CCCCC2)N1c1ccccc1	0%	-3%	-12%	1%	-21%	31%	-5.6%	-8%
C#CCNC(=O)C1=C[C@H](c2ccc3c(c2)OCO3)[C@@H](CCCO)[C@H](OCC)O1	0%	-2%	-19%	/	/	13%	/	/
CCCn1c(=N)c(C(=O)NCc2ccco2)cc2c(=O)n3cc(C)ccc3nc21	/	/	-9%	-16%[46.1 µM]	3%	/	-1.5%	-19%[46.1 µM]
COc1ccc(/C(O)=C2/C(=O)C(=O)N(CCN(C)C)C2c2ccc(C)cc2)cc1Cl (stereo not drawn)	-16%	4%	8%	1%	-17%	8%	-2.6%	?
N#CC1=C2SCN(Cc3ccco3)CN2C(=O)CC1c1c(F)cccc1Cl (stereo not drawn)	-27%	0%	-19%	/	20µM*	-4%	?	/
Cc1ccc(S(=O)(=O)NCC(=O)N(CC(=O)NCc2ccco2)C2CCCC2)cc1	26%	4%	33%[activator]	/	/	-19%	/	2%[46.1 µM]
O=C(CCSCCc1ccccn1)Nc1c(F)cc(F)cc1Br	0%	12%	-14%	-1%	9%	/	0.6%	?
CC(C)(C)NC(=O)C(Cc1ccccc1)NS(=O)(=O)c1ccc2c(c1)CCC(=O)N2 (stereo not drawn)	-3%	2%	9%	5%	-4%	-7%	2.5%	-1%
O=C(Nc1ccc(Cl)cn1)c1cc2c(s1)-c1ccccc1OC2	-2%	-1%	18%	/	/	-2%	/	/
COc1ccc(N=C(C)C2=C(O)c3ccccc3C2=O)cc1	-9%	-24%	-25%	?	-8%	-10%	-6.0%	?
